Bm FixLJ act = B. multivorans fixK reporter activation; hit rate 0.3% among 29,000; B. multivorans fixK-promoter GFP reporter, 18 h; stronger effect = higher value; z-score (no concentration beside the values); AID 1918990;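 active means replicate mean overnight rise in green fluorescent reporter signal, 3 or more SD over negative controls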;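 further: score is relative to vehicle wells of the plate; 300 nL library stock went into each well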
Starred values were filed as active, the others as inactive.

entry	SMILES	Bm FixLJ act
1	CCOC(=O)c1cc(NC(=O)c2ccccc2)c(=O)n2c1oc1ccc(Cl)cc12	-0.03
2	CN[C@H]1CC[C@@H](c2ccc(Cl)c(Cl)c2)c2ccccc21	2.9
3	CC(=O)c1ccc(NC(=O)c2cc(-c3ccc(C)s3)nc3ccccc23)cc1	-0.76
4	Cc1ccc(-c2cnc(NCc3ccc(C(F)(F)F)cc3)n2C)cc1	-2.7
5	CCOc1ccc(/C=C/c2nc(C#N)c(NCCc3ccccc3)o2)cc1	-1.6
6	Cc1c(Cl)cccc1NC(=O)CCS(=O)(=O)c1ccc(Br)s1	-0.55
7	NC(=O)NO	-0.18
8	O=C(CCN1CCCCC1)N1CCC2OCc3cnnn3C2C1 (stereo not drawn)	-0.87
9	O=C(CCn1cccn1)N1CCCC(c2nccn2Cc2cccnc2)C1 (stereo not drawn)	-3.6
10	C[C@]12CC[C@@H]3c4ccc(O)cc4CC[C@H]3[C@@H]1CC[C@@H]2O	-1.4
11	CCN(Cc1cnn(CC)c1)C(=O)CCN1C(=O)c2ccccc2S1(=O)=O	0.21
12	CCOC(=O)N1CCc2c(sc3c2C(=O)NC(c2ccccc2F)N3)C1 (stereo not drawn)	-2.3
13	Cc1nc2c(-c3ccc(F)cc3)c(C)nn2c(C)c1CCC(=O)NCc1cccc(Cl)c1	0.02
14	COc1ccc(CCNC(=O)CCc2c(C)c3cc4c(C)coc4cc3oc2=O)cc1	0.43
15	CCOC(=O)c1ccc(NC(=O)C2Cc3ccccc3C(=O)O2)cc1 (stereo not drawn)	-1.7
16	CCC(C)c1ccccc1OCC(=O)Nc1ccc(S(=O)(=O)Nc2cc(C)on2)cc1 (stereo not drawn)	-0.96
17	CCn1cc(C(=O)N(C)Cc2ccccc2)c(=O)c2cc(S(=O)(=O)N3CCc4ccccc4C3)ccc21	-2.5
18	Cc1ccc(NC(=O)c2ccc(-c3cccc(Cl)c3C)o2)cc1	2.6
19	Clc1ccccc1Cn1cccc1C1=NC(Cc2ccccc2)CO1 (stereo not drawn)	0.55
20	CC(CNC(=O)C1CCN(C(=O)c2cc3sccc3n2C)CC1)c1ccccc1 (stereo not drawn)	-1.1
21	CC(C)N1CCNC(=O)C1CC(=O)NCc1cccc(-c2nn[nH]n2)c1 (stereo not drawn)	-0.27
22	N#C/C(=C\c1c(Oc2ccc(F)cc2)nc2ccccn2c1=O)c1nc2ccccc2s1	-2.7
23	COC(=O)c1ccccc1NC(=O)CCCn1c(C)c2cnn(-c3ccccc3)c(=O)c2c1C	-0.77
24	Cn1nc(-c2ccc(C(=O)Nc3cccc(C(F)(F)F)c3)cc2)c2ccccc2c1=O	-1.9
25	Cc1noc(C)c1S(=O)(=O)N1CCC(C(=O)Nc2ccc(Br)cc2)CC1	-1.4

An excerpt from above in order of length of the SMILES, falling.
entry	SMILES	Bm FixLJ act
2	CN[C@H]1CC[C@@H](c2ccc(Cl)c(Cl)c2)c2ccccc21	2.9
18	Cc1ccc(NC(=O)c2ccc(-c3cccc(Cl)c3C)o2)cc1	2.6
19	Clc1ccccc1Cn1cccc1C1=NC(Cc2ccccc2)CO1 (stereo not drawn)	0.55
8	O=C(CCN1CCCCC1)N1CCC2OCc3cnnn3C2C1 (stereo not drawn)	-0.87

Structural class, the compounds so far with a cyano group
entry	SMILES	Bm FixLJ act
5	CCOc1ccc(/C=C/c2nc(C#N)c(NCCc3ccccc3)o2)cc1	-1.6
22	N#C/C(=C\c1c(Oc2ccc(F)cc2)nc2ccccn2c1=O)c1nc2ccccc2s1	-2.7

Further records
entry	SMILES	Bm FixLJ act
26	Fc1cccc(-n2ncc3c2ncn2nc(-c4ccccc4Cl)nc32)c1	-0.38
27	CCCN(CCC)C(=O)Cn1c(=O)n(CCCCCC(=O)NCc2ccccc2Cl)c(=O)c2sccc21	-1.5
28	COc1cc([C@@H]2c3cc4c(cc3C(OC3O[C@@H]5COC(C)O[C@H]5[C@H](O)[C@H]3O)C3COC(=O)[C@@H]32)OCO4)cc(OC)c1O (stereo partly drawn)	1.3
29	COc1cc2c(=O)n(CCC(=O)NCC3CCCO3)c(=O)n(CC(=O)Nc3ccc(C)cc3)c2cc1OC (stereo not drawn)	-0.13
30	CC1(C(=O)NC2C3CCC2CN(C(=O)CCc2cnccn2)C3)CCCCO1 (stereo not drawn)	-0.67
31	CCc1cc2c(cc3c(=O)n(CCCC(=O)NCc4cccc(Br)c4)ncn32)s1	-0.14
32	CC1CN(c2ccc(Cl)cc2)C(=O)CN1C(=O)c1ccc(N)nc1 (stereo not drawn)	-0.44
33	Cc1ccc(C)c(N2CCN(CCCNC(=O)c3ccc4nc(N5CCC(C)CC5)sc4c3)CC2)c1	0.09
34	COc1cccc(CNCCSc2nnnn2C)c1OCc1ccc(Cl)cc1	0.46
35	COc1cccc(CNC(=O)c2cc3c(-c4ccccc4F)nn(C)c3s2)c1	0.67
36	Cc1cccn2c(=O)c3cc(C(=O)NC(C)c4ccccc4)c(=N)n(CCOCCO)c3nc12 (stereo not drawn)	-1.1
37	Cc1c2cnn(-c3ccccc3)c(=O)c2c(C)n1CC(=O)NCCc1ccc(Cl)cc1	-1.1
38	CCOC(=O)c1cnc2cc(F)c(F)cc2c1Nc1ccccc1O	-1.2
39	CCOC(=O)c1nc(Nc2ccc(C(=O)OCC(C)C)cc2)c2ccccc2n1	-2.6
40	COc1ccccc1-n1cc(CNS(=O)(=O)c2ccc(S(C)(=O)=O)cc2)cn1	0.25
41	CCCCn1cc(S(=O)(=O)c2ccc(OC)cc2)c(=O)c2cc(CC)ccc21	-0.76
42	CCOc1ccccc1NC(=O)Cn1c(=O)n(CCC(C)C)c(=O)c2cccnc21	-1.4
43	CC(C)(N)c1cn(C2c3ccccc3C3(CCNCC3)C2O)nn1 (stereo not drawn)	-1.1
44	CCC(C(=O)N(C)CCc1ncon1)n1cc(C(C)=O)c2ccccc21 (stereo not drawn)	-1.1
45	COc1ccc(NC(=O)c2ccco2)cc1NC(=O)c1c(OC)cccc1OC	-2
46	Cc1cc(C)cc(-n2ccn3cnnc3c2=O)c1	-1.6
47	COc1ccc(Nc2c3c(nc4nncn24)CCC3)cc1Cl	0.34
48	Cn1cc(CNC(=O)C2CCCN(C3CCN(Cc4ccncc4)CC3)C2)cn1 (stereo not drawn)	-0.08
49	COCCCNC(=O)c1sc2nc(C)c(C(=O)Nc3ccc(C)cc3C)c(-c3ccccc3Cl)c2c1N	-0.24
50	CCc1ccccc1NC(=O)c1nn(-c2ccc(C)cc2)c(=O)c2c1c1ccccc1n2C	-1.6
51	CCc1c(C)nc2nncn2c1NCc1ccccc1	-2.5
52	CCc1cc(NCc2cc(-c3ccco3)on2)nc(N2CCOCC2)n1	0.09
53	Cn1ncc2c(N3CC4CNCC4C3)nc(C(C)(C)C)nc21 (stereo not drawn)	-0.65
54	COc1ccc(Cn2c(CCC(=O)NCc3cccc(Cl)c3)nc3cccnc32)cc1	0.37
55	CCc1nc2ccccc2n1CCCCOc1ccc(C)cc1	1
56	O=C(CCc1cc(Cl)no1)N1CCN(c2ncc[nH]c2=O)CC1	-0.23
57	O=C(CSc1ncc(S(=O)(=O)c2ccc(Br)cc2)c(=O)[nH]1)Nc1ccc2c(c1)OCCO2	0.15
58	Cc1ccc(C(=O)c2cn(Cc3ccccc3)c3cc4c(cc3c2=O)OCCO4)cc1	0.1
59	CC(=O)c1ccc(N2CCN(c3nc4ccccc4c4nc(-c5cccc(C)c5)nn34)CC2)cc1	-0.83
60	CC=CCCCC(=O)N1CCC[C@@]2(CN(CCOCC)CCC2O)C1 (stereo partly drawn)	-0.37
61	Cc1ccc(Nc2c(-c3ccc(Cl)cc3)nc3sccn23)c(C)c1	0.54
62	CCOc1ccc(NC(=O)CSc2ncc(S(=O)(=O)c3ccc(F)c(C)c3)c(=O)[nH]2)cc1	0.79
63	CCc1nc(C)sc1CNC(=O)C1CC(=O)Nc2ccc(F)cc21 (stereo not drawn)	-0.35
64	Cc1ccc(C)c(NC(=O)Cn2cc(S(=O)(=O)c3ccc(F)cc3)c(=O)c3cc(F)ccc32)c1	-1.4
65	COc1ccccc1S(=O)(=O)Cc1ccc(C(=O)N2CCN(c3cc(Cl)ccc3C)CC2)o1	-0.11
66	C#C[C@]1(O)CCC2C3CCc4cc(O)ccc4C3CC[C@@]21C (stereo partly drawn)	0.02
67	O=C(c1cc(F)cc(F)c1)N1CCC(c2nc(-c3ccc(S(=O)(=O)N4CCCC4)cc3)no2)CC1	-0.76
68	Cc1ccccc1Nc1c(-c2cccc(Cl)c2)nc2ncccn12	-0.15
69	Cc1ccc2occ(CC(=O)N(Cc3ccc(Cl)cc3)C3CCS(=O)(=O)C3)c2c1 (stereo not drawn)	-1.4
70	c1ccc(-c2cc(NCC3CCOCC3)n3nccc3n2)cc1	-1
71	O=C(NCCCc1nc2ccccc2n1Cc1ccc(Cl)cc1Cl)c1ccco1	-0.37
72	CC(C)CN1CC2(CCN(C(=O)c3cn[nH]c3-n3cnnn3)CC2)CC1=O	-0.26
73	Cc1cc(-c2ccc(C)c(S(=O)(=O)NCc3cc(CC(C)C)no3)c2)on1	0.1
74	COc1ccc(C(=O)NCCn2cc(SCc3ccc(C(F)(F)F)cc3)c3ccccc32)cc1OC	1.2
75	COc1ccccc1C(=O)N/C(=C\c1cn(S(=O)(=O)N(C)C)c2ccccc12)C(=O)NCCCn1ccnc1	-2.6

Additional records follow:
entry	SMILES	Bm FixLJ act
76	COc1ccc(NC(=O)Cn2c(=O)n(Cc3ccccc3OC)c(=O)c3cccnc32)cc1Cl	-0.83
77	C=Cc1ccc(Cn2c(=O)n(-c3ccccc3C)c(=O)c3c4c(sc32)CN(C(C)=O)CC4)cc1	-2.3
78	CCc1nccn1CCNC(=O)c1cccc(-c2ccsc2C(C)=O)c1	0.04
79	CC(=O)N1CCCn2nc(C(=O)N3CCCC(O)C3)cc2C1 (stereo not drawn)	-1.1
80	Cc1ccc(Cn2nc(C)c(NC(=O)c3cc(-c4ccc(F)cc4)on3)c2C)cc1	-0.95
81	CCCc1[nH]ncc1C(=O)N1CCCCC1c1cccc(OC)c1 (stereo not drawn)	-0.94
82	COc1ccc(-c2nc(CS(=O)CC(=O)NCc3ccccc3OC)c(C)o2)cc1 (stereo not drawn)	-0.78
83	COc1cccc(NC(=O)Cn2c(=O)n(CCCCC(=O)NCc3ccccc3Cl)c(=O)c3ccccc32)c1	-0.89
84	Cc1ccc(NC(=O)NC(C)c2c(-n3cccc3)sc(C)c2C)cc1F (stereo not drawn)	0.1
85	CCOC(=O)C1=C(CN(CC)Cc2ccccc2)NC(=O)NC1c1ccc(OC(C)C)cc1 (stereo not drawn)	1.3
86	CN(C)S(=O)(=O)N1CC2CCC(C1)C2NC(=O)c1cnc(C2CC2)nc1 (stereo not drawn)	-1.9
87	O=C(NCc1cccs1)c1nn(-c2ccccc2Cl)nc1CO	0.89
88	COc1ccc(CNC(=O)c2ccc3c(Cl)c4c(nc3c2)CCCC4)c(OC)c1	1.4
89	Cc1ccc(NC(=O)CSc2nc(-c3ccco3)cc(C(F)(F)F)n2)cc1C	-2.5
90	COC(=O)c1cc(Nc2nc3ccccc3nc2NS(=O)(=O)c2ccc(C)cc2)ccc1Cl	-1.4
91	CC(C)(C)c1ccc(OCC(=O)N(Cc2ccco2)Cc2ccccc2F)cc1	0.68
92	Cc1c(C(=O)N(C)Cc2cc(-c3cccnc3)no2)cnc2ccnn12	-1.2
93	CCN(CC)S(=O)(=O)c1ccc(C(=O)NCCSc2c(-c3ccc(OC)cc3)[nH]c3ccccc23)cc1	2.5
94	COc1cccc(-c2nn(C)c3sc(C(=O)NCc4ccc(OC)cc4OC)cc23)c1	-1.9
95	COCC(NC(=O)c1ccccc1SC)c1ccccn1 (stereo not drawn)	0.37
96	CCOC(=O)CN1C(=O)c2cccnc2Oc2ccccc21	-0.54
97	CCCN1CCN(CCCNC(=O)c2cc3c(Cl)nc4ccccc4c3s2)CC1	-2
98	Cc1cc(C)cc(NC(=O)CN(c2cc(C(F)(F)F)ccc2Cl)S(=O)(=O)c2ccccc2)c1	-0.08
99	O=C(CSc1oc(-c2ccc(F)cc2)nc1S(=O)(=O)c1ccc(Cl)cc1)c1ccccc1	0.46
100	COc1ccc(-c2[nH]c(-c3ccccc3)nc2SCC(=O)Nc2ccc3c(c2)OCO3)cc1	-0.02

Random excerpt: 3 compounds from above, in no set order.
entry	SMILES	Bm FixLJ act
100	COc1ccc(-c2[nH]c(-c3ccccc3)nc2SCC(=O)Nc2ccc3c(c2)OCO3)cc1	-0.02
98	Cc1cc(C)cc(NC(=O)CN(c2cc(C(F)(F)F)ccc2Cl)S(=O)(=O)c2ccccc2)c1	-0.08
80	Cc1ccc(Cn2nc(C)c(NC(=O)c3cc(-c4ccc(F)cc4)on3)c2C)cc1	-0.95

(next part)
entry	SMILES	Bm FixLJ act
101	CCOc1ccc2nc(N3CCCC(C(=O)Nc4ccccc4CC)C3)sc2c1 (stereo not drawn)	-1.1
102	CCOC(=O)c1cc2c(=O)n3ccccc3nc2n(C)c1=NC(=O)c1c(-c2ccccc2Cl)noc1C	2.4
103	Cc1nc(CC(=O)NC2CCOCC2OCC(=O)N(C)C)c(C)s1 (stereo not drawn)	-1.2
104	Cc1nc2nc(SCC(=O)NCc3ccccc3)nn2c(C)c1Cc1ccccc1Cl	-0.03
105	CCOc1ccc(NC(=O)c2oc3ccccc3c2NC(=O)Cc2cccs2)cc1	-1.2
106	COc1ccccc1CNc1nc2ccccc2c2nc(-c3cccc(C)c3)nn12	0.3
107	COC(=O)c1cc(NC(=O)c2cc3sccc3n2Cc2ccc(Cl)cc2)cc(C(=O)OC)c1	0.24
108	COc1cccc(Cn2c(C)c(CNCc3cccc(C)c3)c(C(=O)O)c2C)c1	-0.73
109	Cc1ccc(CNC(=O)CC2Oc3ccccc3NC2=O)cc1 (stereo not drawn)	-0.37
110	CCc1ccccc1NS(=O)(=O)c1ccc2c(c1)CCN2C(=O)C1CC1	-2
111	CCCCNc1nc(Oc2ccc(OCCC)nn2)nc(N(C)C)n1	-1.4
112	COc1ccc(C(=O)NC(C)c2nc(N)n[nH]2)c2ccccc12 (stereo not drawn)	-0.87
113	CC(CN1CCCC1)CN(C)S(=O)(=O)c1cc(C(=O)O)c(Cl)cc1F (stereo not drawn)	-0.68

Source: PubChem BioAssay (ICCB-Longwood Screening Facility, Harvard Medical School)

These rows are one share of the data; count on the stated rates, not on these rows.
